FGF22 binding: FGF22 (human) thermal shift binding | Q9HCT0 | recombinant FGF22 thermal shift, SYPRO orange fluorescence; percent of sucrose octasulfate shift, DMSO zero | calls only at 9.99 µM | actives 1.5% (n = 340,000) | AID 651658;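 active = melting point raised past a set limit in the mean and every replicate; three in four hits are not shown here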
Target sequence (Q9HCT0 whole entry, looked up): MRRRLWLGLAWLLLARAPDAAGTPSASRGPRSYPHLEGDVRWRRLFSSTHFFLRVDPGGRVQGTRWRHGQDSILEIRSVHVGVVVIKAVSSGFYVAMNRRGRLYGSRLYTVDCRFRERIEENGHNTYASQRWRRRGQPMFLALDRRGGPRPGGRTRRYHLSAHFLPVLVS
rRNA inh HTS: inhibits bacterial ribosomal RNA function over humanized ribosomes. E. coli WT GFP vs humanized-ribosome RFP mutants, fluorescence, 24 h; hits give low values; DMSO median 0, no signal -100. actives 1.6% (n = 350,000). GFP signal change (wild-type ribosome), % (test concentration not listed);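 active = significant combined selectivity score with lowered wild-type GFP, culture density cut under 30%, mutant RFP and density less affected; inactive = any of these conditions unmet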; note: one replicate is shown; some compounds called inactive have numbers as strong as hits
rRNA inh HTS OD600: also measured in rRNA inh HTS; calls as there; OD600 change, %; measured here: OD600 growth;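 optical density of the mix in the first replicate; 0 = DMSO median and -100 = no signal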
rRNA inh HTS RFP: second read-out of rRNA inh HTS, no call of its own (marks repeat the call); RFP signal change, %; measured here: RFP humanized mutant strains;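 first replicate; 0 = DMSO median and -100 = no signal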
An asterisk follows results filed as active; i = inactive. Some of the compounds tested; count on the stated rates, not on these rows.

| molecule | FGF22 binding | rRNA inh HTS | rRNA inh HTS OD600 | rRNA inh HTS RFP |
| --- | --- | --- | --- | --- |
| C[C@H]1CN([C@@H](C)CO)C(=O)c2cccc(NS(=O)(=O)c3cccs3)c2O[C@@H]1CN(C)C(=O)Nc1cccc2ccccc12 | i | -2.4 | 0.2 | -1.5 |
| O=C(Nc1ccc2c(c1)[C@H]1C[C@@H](CC(=O)N3CCCCC3)O[C@H](CO)[C@H]1O2)C1CCOCC1 | i | 0.6 | 19.8 | 0.6 |
| COc1ccc2c3c([nH]c2c1)[C@H](CO)N(C(=O)Nc1ccc(F)cc1)CC31CCN(S(=O)(=O)c2cccc(C)c2)CC1 | i | 0.1 | -1.6 | -1.3 |
| Cc1cc(C(=O)Nc2ccc3c(c2)C(=O)N(C)[C@@H]2CC[C@@H](CC(=O)N[C@@H](C)c4ccccc4)O[C@@H]2CO3)no1 | i | 0.2 | -5.9 | -0.3 |
| C[C@@H]1CN([C@@H](C)CO)C(=O)c2cc(NC(=O)c3ccncc3)ccc2O[C@@H]1CN(C)CC1CCCCC1 | i | 0.4 | 4.4 | -0.6 |
| C/C=C/c1ccc([C@H]2[C@H](CO)N(C(=O)CC)[C@H]2CNC(=O)C2CC2)cc1 | i | 2.5 | 8.5 | 1.3 |
| CO[C@@H]1CN(C)C(=O)c2cc(NS(=O)(=O)Cc3ccccc3)ccc2OC[C@@H](C)N(Cc2cccnc2)C[C@H]1C | i | -5.1 | -5.0 | 4.6 |
| COCC#Cc1ccc2c(c1)O[C@H](CN(C)S(=O)(=O)c1cccc(F)c1)[C@@H](C)CN([C@@H](C)CO)S2(=O)=O | i | -9.2 | -14.6 | 0.3 |
| CC(=O)N(C)C[C@H]1Oc2ncc(C3=CCCC3)cc2C(=O)N([C@@H](C)CO)C[C@@H]1C | i | 0.8 | 4.6 | -2.2 |
| O=C(N[C@@H]1CC[C@H](CCn2cc(-c3ccccn3)nn2)O[C@H]1CO)c1cccnc1 | i | -1.2 | 1.3 | -1.0 |

Other entries follow.
| molecule | FGF22 binding | rRNA inh HTS | rRNA inh HTS OD600 | rRNA inh HTS RFP |
| --- | --- | --- | --- | --- |
| Cc1ccc(S(=O)(=O)N2C[C@H]3[C@@H](c4ccccc42)[C@@H](CO)N3Cc2cccnc2)cc1 | i | -8.6 | -6.7 | 10.7 |
| CCCNC(=O)C[C@H]1CC[C@H]2[C@@H](COc3ccc(NC(=O)Nc4c(C)noc4C)cc3C(=O)N2C)O1 | i | 2.2 | 5.1 | 2.0 |
| C[C@@H]1CN([C@H](C)CO)S(=O)(=O)c2ccc(C#Cc3ccccc3)cc2O[C@@H]1CN(C)S(=O)(=O)c1ccccc1F | i | 7.7 | 30.2 | -3.2 |
| COCCNC(=O)[C@@H]1[C@@H](CO)[C@@H]2Cn3c(ccc(-c4ccccc4F)c3=O)[C@@H]2N1C(=O)C1CCCC1 | i | -2.1 | 0.3 | -3.0 |
| O=C(NCc1ccc(F)cc1)[C@@H]1[C@@H](CO)[C@@H]2Cn3c(cccc3=O)[C@H]1N2 | i | -0.4 | 2.2 | 0.1 |
| Clc1ccc(-c2csc(NCC3CCCO3)n2)cc1 (stereo not drawn) | i | -5.6 | -15.7 | 3.6 |
| C[C@@H]1CN([C@H](C)CO)C(=O)c2cccc(NC(=O)Nc3ccc(C(F)(F)F)cc3)c2O[C@@H]1CN(C)S(=O)(=O)c1cn(C)cn1 | i | -3.2 | -4.9 | 2.2 |
| CC=Cc1ccc2n(c1=O)C[C@@H]1[C@@H](CO)[C@H](C(=O)NCc3ccc(F)cc3)[C@H]2N1CC (mixture of isomers) | i | 4.6 | -3.9 | -1.3 |
| COc1ccc(S(=O)(=O)N(C)C[C@H]2Oc3ccc(NC(=O)CCCCCC(=O)Nc4ccccc4N)cc3C(=O)N([C@H](C)CO)C[C@@H]2C)cc1 | i | -3.4 | 1.0 | 0.4 |
| COC(=O)C[C@@H]1CC[C@@H]2[C@H](COc3ccc(NC(=O)Nc4ccc(Cl)cc4)cc3C(=O)N2C)O1 | i | -8.2 | -14.6 | 7.4 |

Later entries:
Short forms: A = FGF22 binding; B = rRNA inh HTS; C = rRNA inh HTS OD600; D = rRNA inh HTS RFP
COCCN(Cc1ccc(C)cc1)C(=O)[C@@H](Cc1ccccc1)NC(=O)[C@H]1O[C@@H](n2ccc(=O)[nH]c2=O)[C@H](O)[C@@H]1O
  A = i	B = 13.4	C = -6.6	D = 4.4

CNC(=O)C[C@H]1CC[C@@H]2[C@@H](COc3ccc(NC(=O)c4ccc(OC)cc4)cc3C(=O)N2C)O1
  A = i	B = -0.8	C = 4.3	D = 0.5

Cc1ccc(S(=O)(=O)N(C)C[C@@H]2OCCCC[C@H](C)Oc3ccc(NC(=O)Nc4c(C)noc4C)cc3C(=O)N([C@@H](C)CO)C[C@@H]2C)cc1
  A = i	B = -4.8	C = -1.3	D = 1.3

C[C@@H]1CN([C@H](C)CO)C(=O)Cc2cc(NC(=O)Nc3ccc4c(c3)OCO4)ccc2O[C@H]1CN(C)Cc1ccc(C(=O)O)cc1
  A = i	B = 0.2	C = 6.8	D = -2.4

CCCC(=O)Nc1ccc2c(c1)C(=O)N(C)[C@@H]1CC[C@@H](CC(=O)O)O[C@@H]1CO2
  A = i	B = 2.3	C = 3.9	D = -1.5

Among those listed so far, seven have fluorine.
Short forms: A = FGF22 binding; B = rRNA inh HTS; C = rRNA inh HTS OD600; D = rRNA inh HTS RFP
COc1ccc2c3c([nH]c2c1)[C@H](CO)N(C(=O)Nc1ccc(F)cc1)CC31CCN(S(=O)(=O)c2cccc(C)c2)CC1
  A = i	B = 0.1	C = -1.6	D = -1.3

COCC#Cc1ccc2c(c1)O[C@H](CN(C)S(=O)(=O)c1cccc(F)c1)[C@@H](C)CN([C@@H](C)CO)S2(=O)=O
  A = i	B = -9.2	C = -14.6	D = 0.3

C[C@@H]1CN([C@H](C)CO)S(=O)(=O)c2ccc(C#Cc3ccccc3)cc2O[C@@H]1CN(C)S(=O)(=O)c1ccccc1F
  A = i	B = 7.7	C = 30.2	D = -3.2

COCCNC(=O)[C@@H]1[C@@H](CO)[C@@H]2Cn3c(ccc(-c4ccccc4F)c3=O)[C@@H]2N1C(=O)C1CCCC1
  A = i	B = -2.1	C = 0.3	D = -3.0

O=C(NCc1ccc(F)cc1)[C@@H]1[C@@H](CO)[C@@H]2Cn3c(cccc3=O)[C@H]1N2
  A = i	B = -0.4	C = 2.2	D = 0.1

C[C@@H]1CN([C@H](C)CO)C(=O)c2cccc(NC(=O)Nc3ccc(C(F)(F)F)cc3)c2O[C@@H]1CN(C)S(=O)(=O)c1cn(C)cn1
  A = i	B = -3.2	C = -4.9	D = 2.2

CC=Cc1ccc2n(c1=O)C[C@@H]1[C@@H](CO)[C@H](C(=O)NCc3ccc(F)cc3)[C@H]2N1CC (mixture of isomers)
  A = i	B = 4.6	C = -3.9	D = -1.3

Screens: PubChem, Broad Institute
